AID504770 – growth inhibition of E. coli YBA685, primary screen, V. cholerae RctB inhibitors. E. coli YBA685 rctB-dependent plasmid, OD600 growth, 3 h; stronger effect = lower value. 130,000 compounds, 0.27% hits. z-score (no concentration beside the values);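 active = z-score under -2 on both plates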;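 also: wells of about 30 µL received 100 nL stock; score is relative to mean and SD of the test wells; the first replicate is given; strong numbers were not always called active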
Ba CapD inh – Bacillus anthracis CapD inhibitors, primary screen, biochemical, fluorescence intensity | CapD gamma-glutamyltranspeptidase (Bacillus anthracis Ames Ancestor) | purified CapD enzyme, fluorescence intensity read-out; stronger effect = lower value; some hits fall short of the stated cut | z-score (concentration not given with the values) | 140,000 compounds, 0.23% hits;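 active = z-score under -4 in either of two replicates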;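 also: stock transfer was 100 nL into about 40 µL; score is relative to mean and spread of the plate; one replicate is shown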
Numbers without * were called inactive; x = no result given.

Order of results – AID504770, Ba CapD inh
C=CCNc1cc(CSC)nc(SCc2ccc(Cl)c(Cl)c2)n1
→ x, 0.39
CCN(CC)c1ncnc2ccc(Br)cc12
→ 1.2, x
CC(C)(C)c1cc(CN2CCN(CCC#N)CC2)cc(C(C)(C)C)c1O
→ 1.4, -0.35
O=C(COC(=O)c1ccc(N2C(=O)C3C4C=CC(C4)C3C2=O)cc1)c1cccc([N+](=O)[O-])c1 (stereo not given)
→ x, 0.045
CC(C)(C)c1ccc(S(=O)(=O)N(Cc2ccccn2)c2ccc3[nH]c(C(C)(C)C)cc3c2)cc1
→ x, -0.46
c1ccc2c(c1)nnn2Cc1ccc(Cn2nnc3ccccc32)cc1
→ -0.25, 0.2
Fc1ccc(-c2cnc3ccccc3n2)cc1
→ x, 1.6
CCN(Cc1ccccc1)C(=O)Cn1c(=O)n(CCc2ccccc2)c(=O)c2ccccc21
→ -0.2, -0.93
Cc1nc2ccccn2c1-c1ccnc(SCC(=O)N(c2ccccc2)C2CCCCC2)n1
→ -0.15, 54
CCOC(=O)N1CCN(C(=O)CSc2ncnc3c2nnn3Cc2ccc(F)cc2)CC1
→ -0.45, -0.32
NNc1nc(OC(C(F)(F)F)C(F)(F)F)nc(N(c2ccccc2)c2ccccc2)n1
→ 0, x
C/C(=N\NC(N)=O)c1ccc(NC(=O)c2ccc(F)cc2)cc1
→ 0.7, -0.17
COc1ccc2c(c1)c(=O)oc1c(C)c(OC(C(=O)O)c3ccccc3)ccc12 (stereo not given)
→ -0.3, -0.57
CNC(=O)c1ccc(Nc2nnc(C)c3ccccc23)cc1
→ -0.5, -2
COCC(C)NCc1ccccc1OC (stereo not given)
→ -1, x
Cc1cc2[nH]c(=O)c(=O)[nH]c2cc1S(=O)(=O)NCc1ccccc1
→ -1, 111
COc1ccc(CNc2cc(NCCCO)c([N+](=O)[O-])c3nonc23)cc1
→ x, -2.2
Cc1ccc(-c2nc3c4cc(I)ccc4c4ccccc4c3[nH]2)cc1
→ x, 8.4
Cc1nc(-c2cc(C#N)c(=O)[nH]c2C)cs1
→ x, 13
CCN(CC)c1ccc(/C=N/NC(=O)c2cc(C3CC3)nc3ccccc23)cc1
→ x, -1
CCCCCOc1ccc(N2C(=O)CSC23C(=O)N(CN2CCOCC2)c2ccccc23)cc1 (stereo not given)
→ x, 0.27
CCn1cnc2cc(NCc3cccs3)ccc21
→ -0.9, 20
COc1ccc(-c2nnc3ccc(Cl)nn23)c(OC)c1
→ -0.6, -0.32
O=C(CCc1ccccc1O)N1CCN(c2ncccn2)CC1
→ -0.25, x
COc1ncnc2c1[nH]c1ccccc12
→ -0.7, 39
NC(=O)c1ccsc1NC(=O)/C=C/c1ccccc1
→ 0.7, -0.79
CC(=O)Nc1ccc(S(=O)(=O)Nc2cc(C)nc(C)n2)cc1
→ 1.5, x
CCOC(=O)C1=NNC2C(=O)N(c3cccc(C)c3C)C(=O)C12 (stereo not given)
→ x, -0.02
O=C(O)CCN1C(=O)C(=O)/C(=C(/O)c2ccccc2)C1c1ccccc1 (stereo not given)
→ -0.15, 0.6
COc1ccccc1NC(=O)CN1C(=O)CSC(C)C1=O (stereo not given)
→ -1.6, -0.055
CCOC(=O)c1cnc2ccc(C)cc2c1Nc1ccc(N2CCOCC2)cc1
→ -1.1, 0.35
COc1ccc(-c2noc(N(C)CC(=O)Nc3ccccc3OC)n2)cc1
→ 0.15, -0.62
CCC(=O)OCC(=O)Nc1nc2ccccc2s1
→ -1.4, x
O=c1c2cnn(-c3ccccc3)c2nc2scc(-c3ccc(Cl)cc3)n12
→ x, -0.29
NC(=O)OCC(O)COc1ccc(Cl)cc1 (stereo not given)
→ x, -0.32
NC(=N/c1nc2ccccc2o1)/N=C/c1c(O)[nH]c(=O)[nH]c1=O
→ 0.3, -0.43
COc1ccc(-c2n[nH]c(=S)n2-c2ccccc2C)cc1OC
→ -0.45, -0.17
COC(=O)c1ccc(CS(=O)(=O)c2ccc(OC)cc2)o1
→ -0.55, 0.07
CCc1ccc(N2CCCCn3c2nc2c3c(=O)n(CCc3ccccc3)c(=O)n2C)cc1
→ 1.5, -0.29
CC(=O)NCCN1C(=O)C(=O)/C(=C(\O)c2ccc(Cl)cc2)C1c1ccccc1F (stereo not given)
→ x, -0.54
O=c1cnnc2sc(SCc3ccccc3)nn12
→ -0.8, -2.6
CC1CN(Cc2c(F)cccc2Cl)CC(C)O1 (stereo not given)
→ 0.05, 0.17
O=C(Nn1cnc2ccccc2c1=O)c1ccccc1
→ -0.9, -1.2
COc1ccc(-c2nnc(NC(=O)c3ccc(S(=O)(=O)N4CCCc5ccccc54)cc3)o2)cc1
→ 0.45, -0.22
CC1(C)C2CC=C(/C=N/NC(=O)Cc3cn4ccsc4n3)C1C2 (stereo not given)
→ -1.1, x
CCn1c(=O)cc(SCC(=O)Nc2cccc(C#N)c2)c2ccccc21
→ 0.55, 1.4
Cc1ccc(C)c(C(=O)CN2C3=NCCN3c3ccccc32)c1
→ x, 0.96
Cc1c(CC(=O)O)c(=O)oc2c(C)c3occ(-c4ccc(Br)cc4)c3cc12
→ 2.7, 5.8
O=C(Cn1ncc2ccccc21)Nc1ccc(Br)cn1
→ -0.45, 3.2
Cc1ccc(-c2n[nH]c(=O)c3ccccc23)cc1S(=O)(=O)N1CCCCC1
→ x, 0.09
NCCNc1ccccn1
→ -0.7, x
O=C(Nc1ccccc1C(=O)NC(Cc1ccccc1)C(=O)O)c1ccccc1 (stereo not given)
→ 1.1, 0.025
CC(SCC(=O)N1CCCCCC1)c1nc2scc(-c3cccs3)c2c(=O)[nH]1 (stereo not given)
→ -0.6, x
CCn1c2ccccc2c2cc(CN3CCN(C(=O)OCc4ccc(F)c(C(F)(F)F)c4)CC3)ccc21
→ x, 22
C#CCC1(CC#C)C(=O)OC(C)(C)OC1=O
→ x, 0.52
C=C1C(C(=O)NCc2ccncc2)C1C(=O)NCc1ccncc1 (stereo not given)
→ 0.45, 0.39
Cc1ccsc1C1C=C(c2ccc(Br)cc2)Nc2ncnn21 (stereo not given)
→ x, 5.1
O=C1Nc2ccccc2C12NNC(=S)NN2
→ -0.35, -2.7
Cc1nc(-c2ccc(S(=O)(=O)N3CCC(n4cccc4)CC3)s2)cs1
→ 0.45, 1.4
CCOc1ccc2c(c1)-c1c(ssc1=S)C(C)(C)N2C(=O)c1ccc(Cl)c([N+](=O)[O-])c1
→ x, 0.58

The final 7 compounds of the section before come first, to join the parts:
Order of results – AID504770, Ba CapD inh
CCn1c2ccccc2c2cc(CN3CCN(C(=O)OCc4ccc(F)c(C(F)(F)F)c4)CC3)ccc21
→ x, 22
C#CCC1(CC#C)C(=O)OC(C)(C)OC1=O
→ x, 0.52
C=C1C(C(=O)NCc2ccncc2)C1C(=O)NCc1ccncc1 (stereo not given)
→ 0.45, 0.39
Cc1ccsc1C1C=C(c2ccc(Br)cc2)Nc2ncnn21 (stereo not given)
→ x, 5.1
O=C1Nc2ccccc2C12NNC(=S)NN2
→ -0.35, -2.7
Cc1nc(-c2ccc(S(=O)(=O)N3CCC(n4cccc4)CC3)s2)cs1
→ 0.45, 1.4
CCOc1ccc2c(c1)-c1c(ssc1=S)C(C)(C)N2C(=O)c1ccc(Cl)c([N+](=O)[O-])c1
→ x, 0.58
Cc1noc(C)c1CSCC(=O)c1cc(C)n(-c2ccccc2)c1C
→ 0.25, x
NS(=O)(=O)c1ccc(NC(=O)CSc2nnc3sc4ccccc4n23)cc1
→ x, -0.63
CCOC(=O)c1cnn(C(=O)c2ccc(C(F)(F)F)cc2)c1N
→ 0.2, 1.7
O=c1[nH]cnc2ccc(NC(=S)NC3CC3)cc12
→ -0.35, 1.7
CCOC(=O)/C(C#N)=N/O
→ -0.85, x
NS(=O)(=O)c1cc(C(=O)NCC(F)(F)F)ccc1Cl
→ -0.85, x
C=CCOc1cc(OCc2ccccc2)c(C(C)=O)c(OCc2ccccc2)c1C(C)=O
→ x, 0.095
O=C(N/N=C/c1ccc(F)cc1)C1C(c2ccccc2)C(C(=O)N2CCOCC2)C1c1ccccc1 (stereo not given)
→ x, -0.06
Cc1ccc(NC(=O)c2ccc(CN3CCCn4nc(C)cc43)cc2)c(C)c1
→ -0.1, -0.85
Cc1ccc(S(=O)(=O)N(C)Cc2ccc(-c3nnco3)cc2)cc1
→ -0.15, x
CCCCn1c(SCC(N)=O)nc2cc(S(N)(=O)=O)ccc21
→ 0, x
COc1cc(-n2nnnc2-c2c(F)cccc2F)c(Cl)cc1Cl
→ x, -0.42
O=c1c2ccccc2cnn1-c1ccccn1
→ 1.6, x
CCOC(=O)C1=C(C)NC(=O)NC1c1c(OCC(=O)N2CCCCC2)ccc2ccccc12 (stereo not given)
→ x, -1.1
CCCn1c(=O)c2sccc2n2c(CCCC(=O)NCCc3ccccc3)nnc12
→ 0.8, 1.3
COCCN1C=C(C(=O)OC)C(c2cc3c(cc2Br)OCO3)C(C(=O)OC)=C1
→ -0.05, 11
O=C(CSc1nc2ccccc2[nH]1)Nc1cccc(C(F)(F)F)c1
→ -0.8, -0.44
COc1ccc(C(=O)Cc2ccc(F)cc2)c(OC)c1
→ 1.6, 0.18
O=C(CSc1nnc(CSc2nc3ccccc3s2)n1Cc1ccccc1)NC1CCS(=O)(=O)C1 (stereo not given)
→ -0.55, x
Cc1[nH]c2ccccc2c1C(=O)CSc1nnc(C2CC2)n1C
→ -0.35, x

An excerpt from above in order of heavy-atom count, ascending.
Order of results – AID504770, Ba CapD inh
CCCCn1c(SCC(N)=O)nc2cc(S(N)(=O)=O)ccc21
→ 0, x
Cc1ccc(S(=O)(=O)N(C)Cc2ccc(-c3nnco3)cc2)cc1
→ -0.15, x
Cc1ccc(NC(=O)c2ccc(CN3CCCn4nc(C)cc43)cc2)c(C)c1
→ -0.1, -0.85

Additional entries
Order of results – AID504770, Ba CapD inh
COc1cc(-c2nc(-c3ccc(NC(=O)c4cccs4)cc3)no2)cc(OC)c1OC
→ x, -0.55
O=C(Oc1ccc2c(c1)OCC2=O)c1cccs1
→ 1.8, -0.2
O=C(CSc1c[nH]c2ccccc12)N1CCOCC1
→ 0.55, -0.94
COc1cccc(C2CC(c3ccc(Br)cc3)=NN2S(=O)(=O)c2ccc(C)cc2)c1OC (stereo not given)
→ x, 0.38
O=C(NCC1CC1)NC(=O)c1c(F)cccc1Cl
→ x, 0.89
COC(=O)c1ccc(CSc2nnc(SCC(=O)c3ccc(C)cc3C)s2)o1
→ -0.85, x
CC1=NCCNC(C)=C1Sc1ccccc1
→ 1.1, -0.38
FC(F)(F)c1cc(-c2ccco2)nc(NCCc2ccccc2)n1
→ 0.05, 19
CC1Sc2nnc(C(C)(C)C)n2N=C1c1ccc(Cl)cc1 (stereo not given)
→ 1.4, x
CCCCC1CCC(C(=O)NCC(c2ccco2)N2CCCC2)CC1 (stereo not given)
→ 1, 0.15
CC1CSC(Nc2cccc(C(F)(F)F)c2)=N1 (stereo not given)
→ -0.65, 0.51
COc1ccc(OC)c(N/C=C(\C#N)c2nc(-c3cc4cc([N+](=O)[O-])ccc4oc3=O)cs2)c1
→ x, -0.05
CCOc1ccc(N2CCN(S(=O)(=O)c3ccccc3OC(F)(F)F)CC2)cc1
→ x, 0.065
COc1cc(/C=C2\SC(N)=NC2=O)ccc1OC(=O)c1ccc(Cl)cc1
→ x, 2.6
COc1ccccc1Cn1c(=S)[nH]c2cc(C(=O)N3CCC(C(N)=O)(N4CCCCC4)CC3)ccc2c1=O
→ x, -0.11
O=c1nc(NCc2ccccc2)cn[nH]1
→ -1.1, x
O=S(=O)(c1ccc(NCCc2ccccn2)nc1)N1CCCC1
→ 2, x
CC(C)Cc1cc(C(=O)Nc2sc3c(c2C#N)CCC3)no1
→ 0.4, -0.26
COc1ccccc1/C=C1\SC(=S)N(CCC(=O)OCCN(C)C)C1=O
→ x, -3.5
COc1ccc(C(=S)N2CCN(C(N)=S)CC2)cc1
→ -0.25, x
COc1ccc(NC(=O)c2cccnc2Nc2cccc(F)c2)cc1
→ -1.1, -0.91
O=C(Cn1c(=O)n(-c2ccc(F)cc2)c(=O)c2oc3ccccc3c21)NC1CCCCC1
→ -1.2, x
S=c1nc[nH]c2c1ncn2CN1CCCCC1
→ -0.3, -2.9
Cc1ccc(C(NC(=O)C(C)C)c2cc(Cl)c3cccnc3c2O)cc1 (stereo not given)
→ -0.7, -0.28
Cc1cc2c(cc(C(=O)N3CCC(C(=O)NCc4ccc5c(c4)OCO5)CC3)n2Cc2c(F)cccc2Cl)o1
→ -0.2, -0.33
CC1(C)CC(NC(=O)c2ccccc2Cl)CC(C)(C)N1
→ -0.75, x
CN(C)C(=O)COC(=O)Cn1cnc2ccccc21
→ -1.1, x
CCn1c(=O)c2cc(C(=O)N(C)CC(OC)OC)sc2c2ccccc21
→ 0.2, 1.2
COc1cccc(C2C3=C(CC(C)(C)CC3=O)Nc3ccccc3N2C(C)=O)c1 (stereo not given)
→ 0.05, 0.37
CC(C)c1nccn1CCC(=O)O
→ 1.9, -0.59
O=C1c2ccccc2C(=O)N1c1ncn[nH]1
→ 0.3, x
CCc1nn2c(=O)cc(COc3ccc(NC(=O)c4ccccc4)cc3)nc2s1
→ 0.15, 0.12
CCOc1cccc(C=Nc2ccc(Br)cn2)c1O
→ 0.15, -0.42
O=c1cc(Cl)c2ccccc2o1
→ -1.2, 0.45
Cc1cc(C)cc(N2C(=O)NC(=O)/C(=C\c3ccc(OC(C)C(=O)O)cc3)C2=O)c1 (stereo not given)
→ x, -0.12
C/C(=N\OC(=O)Nc1c(-c2c(Cl)cccc2Cl)noc1C)C(C)(C)C
→ -0.6, 0.3
Cc1cccc(CN2CCC(CNc3ncnc4onc(-c5ccc(F)cc5)c34)CC2)c1
→ -0.15, 0.8
Cn1c(SC2CCOC2=O)nc2ccccc2c1=O (stereo not given)
→ -0.5, x
COc1cc(/C=N/n2cnnc2)ccc1OCC(=O)N1CCOCC1
→ -1.4, 5.6
CN(C)c1ccc(NC(=O)NCC2CCCC(CNC(=O)Nc3ccc(N(C)C)cc3)C2)cc1 (stereo not given)
→ -0.1, x
O=C(N/N=C/c1ccccc1O)NC12CC3CC(CC(C3)C1)C2
→ -0.1, x

Screening results as filed in PubChem.
